LANA-nucl inh = inhibitors of KSHV LANA binding to nucleosomes | FITC-LANA1-23 / chicken nucleosome fluorescence polarization; active compounds read low | z-score (no concentration beside the values) | 0.3% of 51,000 active | AID 720717;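 active means both repeat wells score below -2 in polarization z-score versus plate sample wells, excluding overly bright wells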;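 further: 100 nL library stock added to about 30 µL; numbers are from one replicate; some results filed as inactive read as strong as hits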
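Assay system: purified chicken nucleosomes with FITC-labelled LANA N-terminal peptide (1-23) / Probe or stimulus: 50 nM FITC-LANA1-23 probe / Compound dosing: pin-transferred compound, 100 nL / Times: compound with peptide–nucleosome mix 10–45 min at room temperature / Technique: fluorescence polarization, 480 nm excitation, 535 nm parallel and perpendicular emission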
BasE inh = BasE siderophore biosynthesis inhibition; purified BasE, fluorescence polarization binding displacement; 0.1% of 84,000 active; inhibition, % (test concentration not listed); AID 485350;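 active means both replicates above 25% with normal brightness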;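 further: 0% = negative plate control signal and 100% = positive plate control signal; stock transfer was 100 nL into about 30 µL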
* marks the source's active call; other numbers are inactive results; x = no result given; & = joins results of further samples.

Order of values: LANA-nucl inh | BasE inh
COC(=O)C1=C(C)NC(=O)NC1c1ccc(C(C)C)cc1 (stereo unspecified)
 : 0.23 | -1.9
O=C(c1ccc2c(Cl)c3c(nc2c1)CCC3)N1CCC2(CC1)OCCO2
 : 0.72 | -1.9
O=C(CCS(=O)(=O)Cc1ccccc1)N1CCN(c2ccccc2)CC1
 : -0.72 | 0.3
c1cc(OC2CCNCC2)cc(-n2cnnn2)c1
 : -1.5 | -0.2
Cc1nc2cc(N=Cc3ccc(Cl)cc3)ccc2n1Cc1ccccc1
 : x | 0.3
CC(C)c1nnc(NC(=O)C2c3ccccc3Oc3ccccc32)s1
 : x | 0.6
O=C1c2ccccc2C(=O)C1c1ccccc1
 : -0.083&0.16&-0.11 | -0.4&-1.8
CC1C(=O)CC(c2ccco2)NC1c1ccco1 (stereo unspecified)
 : -0.49 | 3.2
Brc1cccc(-c2nnc3sc(CNC4CCCC4)cn23)c1
 : 0.57 | 0.2
CC(C)c1cc(NC2CCCCC2)n2c(nc3ccccc32)c1C#N
 : x | -1.4
C/C(=N\NC(=O)Cc1csc(C)n1)c1ccc(C)cc1
 : x | -2.1
C#CC(CC)(CC)NC(=O)CCc1nc2sc3c(c2c(=O)[nH]1)CCCC3
 : x | -4.4
COC(=O)c1sc(S(=O)(=O)NCc2ccccc2)c(C(=O)OC)c1C
 : -0.85 | -0.2
CCOc1ccc(N2C(=O)CC(SCc3nc4ccccc4[nH]3)C2=O)cc1 (stereo unspecified)
 : 2.8 | -1.8
CNCCCc1cc(C)ccc1O
 : 0.07 | 0.3
O=c1c2oc3ccccc3c2[nH]c(=S)n1Cc1cccs1
 : 1 | -2.0
CCCOc1ccc(C(=O)N(CC(N)=O)C(C)C)cc1
 : x | -2.8
CC1CCN(C(=O)c2oc3ccccc3c2NC(=O)c2ccccc2F)CC1
 : x | 0.5
Cc1noc(C)c1COC(=O)Cc1c[nH]c2ccccc12
 : x | -0.6
O=C(CNc1ccc(C(F)(F)F)cc1)N1CCc2ccccc21
 : x | 1.1

Reprinted from the part before: two entries, then new ones.
Order of values: LANA-nucl inh | BasE inh
Cc1noc(C)c1COC(=O)Cc1c[nH]c2ccccc12
 : x | -0.6
O=C(CNc1ccc(C(F)(F)F)cc1)N1CCc2ccccc21
 : x | 1.1
O=C(Cn1cc2c(n1)CCCC2)Nc1cccc(C(F)(F)F)c1
 : -0.14 | 0.8
COc1ccc(-c2cc(-c3nnc(CSc4nnc(-c5ccncc5)n4C)o3)c3ccccc3n2)cc1OC
 : x | 0.3
O=C(Nc1c(C(=O)N2CCOCC2)oc2ccccc12)c1cccs1
 : x | -1.7
NC(=O)Cn1cnc2c(cnn2CCO)c1=O
 : 0.065 | -1.4
Cc1ccc(NCc2cc(=O)[nH]c3ccccc23)cc1
 : 0.081 | -1.6
Cc1nc(SCC(=O)NN2C(=O)NC3(CCCCC3)C2=O)c2ccccc2n1
 : x | 1.6
c1ccc(-c2nc(CSc3nnc4n3CCCCC4)cs2)cc1
 : x | 0.0
O=C1NC2c3ccccc3C(=O)N2c2ccccc21 (stereo unspecified)
 : 0.05 | 1.9
COC(=O)c1c(SCC(=O)NC2CCCCC2)[nH]c2ccccc2c1=O
 : x | -0.5
CC1CCCC(C)N1C(=S)SCC(=O)O (stereo unspecified)
 : x | 1.8
CC(=NCc1ccc(C#N)cc1)c1c(C)cc(C)cc1O
 : 0.11 | 1.2
CSc1ccc(S(=O)(=O)N2CCC(C(=O)NCCN3CCOCC3)CC2)cc1
 : -0.1 | 0.7
CN=c1scc(C)n1/N=C/c1c[nH]c2ccc(Br)cc12
 : x | 3.6
Cn1nnnc1NC(=O)c1ccccc1
 : -0.56 | 3.4
COC(=O)C(O)(CC(=O)Nc1cccc(SC)c1)C(F)(F)F (stereo unspecified)
 : -0.64 | 1.2
Cc1ccc(/C(C#N)=C\c2cccs2)cc1
 : -1.1 | -0.8
CCCNC(=O)CN
 : x | 0.2
O=C1CCNc2ccc(C(F)(F)F)cc2N1
 : -0.85 | x
O/N=C/c1c(F)c(F)c(F)c(F)c1F
 : x | 0.8
CCOC(=O)C1=C(CSc2n[nH]c(N)n2)NC(=O)NC1C (stereo unspecified)
 : x | -0.1

(listing goes on)
Order of values: LANA-nucl inh | BasE inh
CCNC(=S)NCC1CC1
 : x | 1.5
CCn1nc(C)c(C(C#N)N2N=C(C)CC2c2ccccc2)c1C (stereo unspecified)
 : -0.33 | 1.7
CCc1ccccc1NC(=O)CN1CCN(C(=O)C2CCCN2S(=O)(=O)c2ccc(C)cc2)CC1 (stereo unspecified)
 : x | -3.0
CCN(C(=O)c1sc2ccccc2c1Cl)C(Cc1ccccc1)c1ccc(OC)cc1 (stereo unspecified)
 : 0.14 | x
O=C(NCc1ccccc1)N(Cc1nc2ccccc2c(=O)[nH]1)C1CCCC1
 : 0.54 | 12
N#Cc1nn(-c2ccccc2)c(=O)[nH]c1=O
 : x | -0.2
O=C(Cc1n[nH]c(=O)c2ccccc12)Nc1nc(CN2CCOCC2)cs1
 : x | 3.5
Cc1ccc(CNC(=S)NN(C)C)cc1
 : x | 1.3
O=C(COC(=O)C12CC3CC(CC(C3)C1)C2)c1ccc(Br)cc1
 : x | 0.5
CCN1CCN(C(c2cccs2)C(C)NC(=O)c2ccccc2)CC1 (stereo unspecified)
 : -1.5 | -0.4
COc1ccc(-c2nnc(SC(C)C)n2-c2ccccc2)cc1
 : -0.046 | -1.1
COc1cc(/C=N/n2c(=O)[nH]c3ccccc3c2=O)ccc1OCC(=O)O
 : x | -1.2
CCOC(=O)C1CCN(c2ncnc3c2cnn3-c2cccc(C)c2)CC1
 : -0.4 | -3.5
c1cc(-c2nc3ccccc3s2)nc(-c2nc3ccccc3s2)c1
 : x | -1.6
CNC(=O)C1Cc2cc(S(=O)(=O)N3CCCC3)ccc2N1C(C)=O (stereo unspecified)
 : -1.2 | 1.5
O=C1CC(c2ccco2)CC2=C1C1c3ccccc3C(=O)N1c1ccccc1N2 (stereo unspecified)
 : -0.98 | 0.8
COc1cccc(CN(C(=O)c2ccccc2)C2CCS(=O)(=O)C2)c1 (stereo unspecified)
 : 0.49 | -0.1
CC(=O)NCc1ccc(C(=O)CSc2nc3cc(Cl)ccc3s2)o1
 : x | -15
Cc1nnc(-c2cccc(S(=O)(=O)NCCc3ccccc3)c2)o1
 : 0.19 | -0.2
N#CCOC(=O)C1c2ccccc2Oc2ccccc21
 : x | -1.1

Compounds shown so far that contain a CF3 group (four):
Order of values: LANA-nucl inh | BasE inh
O=C(CNc1ccc(C(F)(F)F)cc1)N1CCc2ccccc21
 : x | 1.1
O=C(Cn1cc2c(n1)CCCC2)Nc1cccc(C(F)(F)F)c1
 : -0.14 | 0.8
COC(=O)C(O)(CC(=O)Nc1cccc(SC)c1)C(F)(F)F (stereo unspecified)
 : -0.64 | 1.2
O=C1CCNc2ccc(C(F)(F)F)cc2N1
 : -0.85 | x

Carrying on:
Order of values: LANA-nucl inh | BasE inh
S=c1n(CN2CCOCC2)nc(-c2ccccc2Br)n1-c1ccccc1
 : 1.1 | 0.7
Cc1ccc(S(=O)(=O)N(C)c2nc3ccccc3nc2N2CCCC(C(N)=O)C2)cc1 (stereo unspecified)
 : x | 1.2
O=C(CSc1nnc(-c2ccc3c(c2)OCO3)n1-c1ccccc1)NC1CCCC1
 : x | 3.0
O=C(NCC(c1cccnc1)N1CCOCC1)c1ccc2c(c1)OCO2 (stereo unspecified)
 : -1.2 | 1.0
Cn1nccc1-c1cc(F)cc(F)c1O
 : x | -2.2
CC1(C)CC(=O)C(N=Nc2ccc3c(c2)OCO3)=C(O)C1
 : -0.24 | -5.8
C=CCn1c(-c2c(C)oc3ccccc23)cs/c1=N\S(=O)(=O)c1cccs1
 : x | -0.5
OC1COCc2nc3ccccc3n2C1 (stereo unspecified)
 : 0.57 | 0.8
COc1ccc(-c2csc(S(C)=O)c2C#N)cc1 (stereo unspecified)
 : 0.62 | 6.2
CC(=O)O[C@@H]1[C@@H](OC(C)=O)[C@@H]2OC[C@@H](O2)[C@H]1OC(C)=O
 : x | 1.4
CCOC(=O)Nc1ccc(NC(=O)OCC)cc1
 : -0.2 | 1.3
Oc1ccccc1-c1nc(-c2ccccc2)no1
 : x | 0.3
COCCOC(=O)C1=C(C)NC(C)=C(C(=O)OC(C)C)C1c1cccc([N+](=O)[O-])c1 (stereo unspecified)
 : 0.27&0.083&0.88&0.53&-0.38&-0.87 | 0.3&0.0&1.9
O=C(Cn1c(=O)n(CCCC(=O)NC2CCCC2)c(=O)c2ccccc21)NCCC1=CCCCC1
 : 0.12 | 0.1
CCCCC(C(=O)Nc1ccc(F)cc1)N1C(=O)c2ccccc2C1=O (stereo unspecified)
 : -0.57 | 1.8
Cc1ccc(NC(=O)COC(=O)CC2SC(N3CCCC3)=NC2=O)cc1 (stereo unspecified)
 : x | 4.3
COc1ccc(CC(=O)NCc2n[nH]c(=S)n2-c2cccc(C)c2)cc1
 : -0.67 | 0.9
O=C(O)C(C(=O)C1CC1c1ccccc1)=C1SCCS1 (stereo unspecified)
 : x | 0.3
CN(C)Cc1ccccc1CNC(=O)c1ncc(Cl)c(Cl)c1Cl
 : x | -1.6
CCN(/C=C1/CCCCC1=O)C1CC2CCC1C2 (stereo unspecified)
 : x | 1.8

Look-ups from the entries so far.
Reading of CN(C)Cc1ccccc1CNC(=O)c1ncc(Cl)c(Cl)c1Cl under BasE inh: -1.6
Reading of S=c1n(CN2CCOCC2)nc(-c2ccccc2Br)n1-c1ccccc1 under LANA-nucl inh: 1.1
Reading of O=C(NCC(c1cccnc1)N1CCOCC1)c1ccc2c(c1)OCO2 (stereo unspecified) under BasE inh: 1.0

Reformatted: entries from further up
SMILES | LANA-nucl inh | BasE inh
CCCCC(C(=O)Nc1ccc(F)cc1)N1C(=O)c2ccccc2C1=O (stereo unspecified) | -0.57 | 1.8
Cc1ccc(NC(=O)COC(=O)CC2SC(N3CCCC3)=NC2=O)cc1 (stereo unspecified) | x | 4.3
COc1ccc(CC(=O)NCc2n[nH]c(=S)n2-c2cccc(C)c2)cc1 | -0.67 | 0.9

Next part:
Order of values: LANA-nucl inh | BasE inh
COc1cc2c(cc1OC)C(c1ccccc1NC(=O)c1cccc(Cl)c1)=NCC2
 : x | -6.0
CC(C)C(=O)NC(=S)Nc1ccc(-c2nc3ncccc3o2)cc1
 : -1.2 | 3.4
N#CCn1c(C(F)(F)F)nc2c(cnn2-c2ccccc2)c1=O
 : x | -24
O=C1C=C(NNC(=O)COc2cccc(F)c2)CCC1
 : x | 1.2
COC(=O)/C=C/c1ccc(C(=O)NCC(=O)N[C@@H](CCC(=O)OC)C(=O)N[C@@H](CC(C)C)C(N)=O)cc1
 : -0.4 | -2.0
O=C1Nc2ccccc2-c2ccccc2N1
 : -0.28 | 3.5
c1ccc(CSC2=NCN(Cc3ccccc3)CN2)cc1
 : x | -1.7
COC(=O)c1ccccc1NC(=O)COc1nc2ccccc2nc1N1CCOCC1
 : x | -3.1
CC[C@H](C)C(=O)O[C@H]1C[C@H](O)C=C2C=C[C@H](C)[C@H](CC[C@@H](O)C[C@@H](O)CC(=O)O)[C@H]21
 : 0.2 | x
Cc1cc(NCc2cccnc2)n2ncnc2n1
 : -0.081 | 1.0
O=C(CSc1ncccn1)n1c2c(c3ccccc31)CCCC2
 : 0.66 | -0.2
O=C(O)C1CCN(c2ncccn2)CC1
 : -0.036 | 1.8
c1ccc(-c2nnc(SCc3cccnc3)o2)cc1
 : 1.7 | -2.2
COc1ccc(CCNC(=O)CSc2nc(N3CCOCC3)nc(N3CCOCC3)n2)cc1OC
 : -0.69 | 2.3
CN(Cc1cccnc1)C(=O)CNS(=O)(=O)c1ccccc1C#N
 : x | 1.0
CC(C)(C)c1cc(C(=O)NN)n(Cc2ccccc2)n1
 : 2 | -3.9
CC(c1ccccc1)n1c(CCc2ccc(O)cc2)n[nH]c1=S (stereo unspecified)
 : x | 0.4
O=C(NC(=O)c1ccccc1F)OCc1ccc(Cl)cc1Cl
 : x | -2.1
O=c1cc[nH]c(=S)[nH]1
 : -0.46 | -1.2
O=C(CN1C(=O)NC2(CCCC2)C1=O)c1ccccc1
 : x | 2.1

Going on with the list.
Order of values: LANA-nucl inh | BasE inh
CN1CC=C(/C=C/c2ccc(-c3nc4ccccc4s3)o2)CC1
 : 1.9 | -7.0
C[C@H]1O[C@@H](n2cnc3c(N)ncnc32)[C@H](O)[C@@H]1O
 : 0.66 | 2.8
Cc1ccc(-n2cnc3cc(NCc4ccco4)ccc32)cc1
 : 0.62 | 0.7
CC1CCN(Cc2cc(Cl)c(O)c(Cl)c2)CC1
 : 0.58 | x
COC(=O)C1=CN(C(CC(C)C)C(=O)OC)C=C(C(=O)OC)C1c1ccc(Br)cc1 (stereo unspecified)
 : x | -0.7
CCN(CC)S(=O)(=O)c1ccc(NC(=O)Cn2c(=O)cnc3ccccc32)cc1
 : x | 1.8
O=C1C=C(Cc2ccc(F)cc2)C(=O)c2ccccc21
 : 0.77 | 4.5
COc1cc(C(=O)OCn2c(=O)oc3ccccc32)cc(OC)c1OC
 : 0.16 | 1.8
Cc1cc(-n2c(C)cc(/C=C3\SC(=NC4CCCC4)NC3=O)c2C)no1
 : x | -0.5
COC(=O)Cn1c(=O)c(=O)n(CC(=O)OC)c2ccccc21
 : 0.28 | 0.3
CC1(C)C2CC=C(CNc3ccc4c(c3)OCO4)C1C2 (stereo unspecified)
 : 0.72 | -8.1
CCCNC(=O)c1cc(N(C)S(=O)(=O)c2ccccc2)ccn1
 : -0.78 | -0.6
CCOC(=O)N1CCC(NC(=O)c2cc(C)on2)CC1
 : x | -1.4
Cc1ccc(S(=O)(=O)N2C(=O)CCC2C(=O)O/N=C(\N)c2ccccn2)cc1 (stereo unspecified)
 : -0.87 | -0.9

These rows are one share of the data. The share of hits here may be higher or lower than overall.
